# D2 PAM: human D2 receptor positive allosteric modulation. P14416. DiscoveRx D2 beta-arrestin cells, luminescence, 90 min; 100% = 57 uM dopamine signal. potentiation, % (concentration not given with the values). 0.23% of 360,000 active; active = potentiation of 50% or more; inconclusive = 30% to 50%; inactive = 30% or less;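 note: compound concentration not given in the record; tested on top of an EC20 dose of dopamine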
# Target sequence (P14416 whole entry, looked up): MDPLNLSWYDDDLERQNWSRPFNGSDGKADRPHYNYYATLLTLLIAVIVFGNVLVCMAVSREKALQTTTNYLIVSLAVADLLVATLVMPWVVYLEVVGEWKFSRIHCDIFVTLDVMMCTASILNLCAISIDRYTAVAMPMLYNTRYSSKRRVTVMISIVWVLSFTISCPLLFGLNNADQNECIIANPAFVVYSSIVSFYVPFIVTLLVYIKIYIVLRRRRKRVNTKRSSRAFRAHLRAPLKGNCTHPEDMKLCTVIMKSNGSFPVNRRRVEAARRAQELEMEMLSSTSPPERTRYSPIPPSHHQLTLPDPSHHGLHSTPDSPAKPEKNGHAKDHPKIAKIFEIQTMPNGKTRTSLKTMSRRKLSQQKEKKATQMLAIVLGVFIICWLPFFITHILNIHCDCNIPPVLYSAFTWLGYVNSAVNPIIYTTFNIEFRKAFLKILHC
#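 PathHunter beta-arrestin assay in DiscoveRx D2 cells. Compounds were added with an EC20 of dopamine (50 nM final) for 90 min at 37 deg C. Luminescence was read 1 h after detection reagent, with 57 uM dopamine as the EC100 control.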
# TRPV1 potentiator: human TRPV1 potentiation | Q8NER1 | TRPV1-expressing cells, Fluo-8 calcium influx, capsaicin EC20 potentiation; host cell line not named in the record; control for the full effect not named in the record | potentiation, % at 8.33 µM | 0.02% of 320,000 active | AID 540277; active means potentiation above 80%; inconclusive means 30% to 80%; inactive means below 30%; note: 0% is about no effect
#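 Cells expressing TRPV1 were dye-loaded with Fluo-8 and read kinetically: 10 s baseline, 3 min after compound (agonist portion), then 2 min after EC20 capsaicin (allosteric enhancer portion). Calcium-bound dye fluorescence at 480/520 nm.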
# Six1-Eya2 inh: blocks human Six1 binding to Eya2; AlphaScreen GST-Six1/His-Eya2 binding, biochemical; active compounds read low; control for the full effect not named in the record; activity change, % (no concentration beside the values); 0.56% of 360,000 active; in the data active = activity change below about -65%; inconclusive = about -30% to -65%; inactive = above about -30%; note: % is set by controls: 0 for no effect and ±100 for the full control effect
#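 Homogeneous AlphaScreen proximity assay pairing GST-Six1 with His-tagged Eya2 (added as 5X mix: 250 nM and 500 nM) in 50 mM Tris pH 8.0, 300 mM NaCl, 1 mM TCEP. Glutathione donor and nickel acceptor beads; 1 h, 37 °C, dark.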
# PINK1 modulator: changes PINK1 expression; PINK1 immunofluorescence, high-content cytometry, 24 h; Potency, µM (titrated, usually from 76.6 µM), inactives show at the highest dose activation (PINK1 increase), usual class: activators; 0.2% of 410,000 active; AID 624263; active = well fitted activation curve with a large enough effect; inconclusive = small, poorly fitted or top-dose-only effect; inactive = flat fitted curve, though single readings scatter; cell line not stated here;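 note: potency is the fitted concentration of half-maximal effect; % of control where 0% means no effect; nearly all actives have a fitted effect of over 65% in size; a mitochondrial uncoupler was the plate control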
#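 Stable cell line, 250 cells/well, 12 h attachment; compounds pinned at 5 concentrations, 24 h; CCCP control. Fixed with nuclear dye, primary antibodies 12 h at 10 degrees C, secondary plus cell stain; laser-scanning cytometer read.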
# CtBP-E1A inh: CtBP/E1A binding inhibition. activity change, % (no concentration beside the values). 0.49% of 340,000 active. AlphaScreen GST-E1A/His-CtBP binding, 1536-well; active compounds read low; control for the full effect not named in the record; in the data active means activity change below about -65%; inconclusive means about -30% to -65%; inactive means above about -30%; note: % is set by controls: 0 for no effect and ±100 for the full control effect
#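 GST-E1A and His-tagged CtBP (125 nM each as 5X stock) were preincubated with pin-transferred compound for 2 h at 37 °C in the dark, then glutathione donor and nickel acceptor beads were added for 1 h before AlphaScreen reading.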
# D2 agonist: human D2 receptor agonism in beta-arrestin assay | P14416 | DiscoveRx PathHunter D2 beta-arrestin, luminescence, 90 min; 100% = 57 uM dopamine signal | activation, % (test concentration not listed) | 0.084% of 360,000 active; in the data active = activation above about 40%; inconclusive = about 15% to 40%; inactive = below about 15%; note: compound concentration not given in the record; the text of the record calls up to 30% inactive
#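 Agonist mode: compounds alone added to overnight-plated D2 PathHunter cells for 90 min at 37 C, with 57 uM final dopamine (EC100) defining full response. Beta-arrestin recruitment detected by chemiluminescent reagent, read after 1 h at ambient temperature.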
# Sfp inh: inhibitors of Bacillus subtilis Sfp phosphopantetheinyl transferase; Potency, µM, for the others: max response, negative = inhibition, usual class: inhibitors; Biochemical Sfp PPTase activity, qHTS; 3.5% of 310,000 active; active = well fitted inhibition curve with a large enough effect; inconclusive = small, poorly fitted or top-dose-only effect, or another doubt; inactive = no such curve, though single readings can be large or run the other way;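 note: the enzyme is Sfp with the accession as filed and its product quenches rhodamine fluorescence; potency is the fitted concentration of half-maximal effect; 0% = enzyme reaction without inhibitor and -100% = no enzyme wells; top concentration of the series not given in the record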
#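 Fluorescence-quenching assay with 15 nM Sfp, 5 uM rhodamine-CoA and 12.5 uM BHQ-2-labelled ybbR peptide in pH 7.6 Hepes/MgCl2 buffer. Enzyme was pre-incubated with compound for 15 min at room temperature. Rate was taken from the 30-min fluorescence change (525/598 nm).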
# Active calls of the source: *; ? = inconclusive; nt = no result given; [ ] = dose if it differs, or a comment.
structure	D2 PAM	TRPV1 potentiator	Six1-Eya2 inh	PINK1 modulator	CtBP-E1A inh	D2 agonist	Sfp inh
CCn1c(SCC(=O)Nc2ccc(N3CCOCC3)cc2)nnc1-c1ccc(OC)cc1	-3	-1	22	6.8%[38.3 µM]	48	-3.3	-2%
NCCOc1ccc(C23CC4CC(CC(C4)C2)C3)cc1	-6	0	0	-2.3%	-3	3.1	-28%
COc1cc(-c2nnc3sc(Cc4ccc(Cl)cc4)nn23)cc(OC)c1OC	-7	nt	0	10%	6	-0.2	nt
CCN(Cc1ccccc1)C(=O)c1cccc(S(=O)(=O)N2CCN(c3ccc(F)cc3)CC2)c1	-14	-6	-4	0.5%	-1	-1.0	nt
COCCn1c(C)cc(C(=O)COC(=O)C2CC(=O)N(CCc3ccc(OC)c(OC)c3)C2)c1C (centres undefined)	-7	?	-15	1.3%	-1	-5.8	nt
COc1cc(/C(C)=N/NC(=S)NC(C)C)cc(OC)c1OC	1	2	-10	2.3%	-8	0.5	5%
CC1CN(Cc2cc(=O)n3ccsc3n2)CC(C)O1 (centres undefined)	-14	-1	5	-2.1%	7	-0.6	-21%
O=C(Cc1ccc(Br)cc1)NCCc1ccc(F)cc1	-14	-6	7	3.6%	4	0.8	-9%
Cc1c(N2C(=O)/C(=C\c3ccccc3O)SC2=S)c(=O)n(-c2ccccc2)n1C	-13	3	-2	2.4%	-5	-3.8	13µM*
O=C(Nc1nc2c(s1)CCCC2)c1cccnc1	-2	-8	-9	-4.6%[38.3 µM]	-13	0.5	?
O=C(NCc1ccccc1)c1ccc(S(=O)(=O)N2CCCc3ccccc32)cc1	-3	-3	2	-4.3%	-8	0.2	17%
CN(C)c1ccc(CN(Cc2ccco2)C(=O)c2ccco2)cc1	-6	3	?	0.4%	?	0.0	-13%
COC(=O)c1sc(S(=O)(=O)N2CCN(c3ccccc3F)CC2)c(C(=O)OC)c1C	2	nt	3	-0.3%	5	-0.4	nt
Cc1ccc(NC(=O)c2cnccn2)nc1	-4	8	6	-0.4%	0	-0.7	-2%
COc1ccc(NC(=O)c2sc3ncn(CC(=O)N4CCCCC4)c(=O)c3c2C)cc1OC	0	20	-7	-0.3%	2	-0.3	4%
O=C(c1ccc(Cl)cc1)c1cnc(Nc2ccccc2Cl)s1	-1	-11	11	35%[38.3 µM]	16	-5.4	-20%
CCOC(=O)c1csc(NC(=O)COc2ccc(Cl)cc2Cl)n1	-14	27	6	0.3%	3	-5.0	-6%
CCC(=O)OCC(=O)Nc1ncc(C(F)(F)F)cc1Cl	-1	?	0	0.8%	-5	-3.1	-10%
CCOC(=O)c1c(-c2cccs2)csc1NC(=O)CCCC(=O)O	-2	0	-5	4.9%[38.3 µM]	1	-3.1	-2%
CN(C(=O)Cn1cc(C(F)(F)F)cc(Cl)c1=O)C1CCS(=O)(=O)C1 (centres undefined)	10	0	1	0.7%	6	-0.6	nt
CC(C)(C)c1ccc(OCC(O)CSc2ncn[nH]2)cc1 (centres undefined)	-7	-14	-1	0.8%[38.3 µM]	-7	-0.2	-13%
COCCSc1ccccc1C(=O)Nc1nncs1	2	-11	-1	0.0%[38.3 µM]	0	-2.1	-5%
CS(=O)(=O)c1ccc(Cl)c(NC(=O)CCc2ccccc2)c1	-6	4	4	2.1%	nt	7.9	12%
COc1ccc(C(C(=O)NCCC(C)C)N(CCN2CCOCC2)C(=O)Cn2nnc3ccccc32)c(OC)c1 (centres undefined)	-11	5	4	-1.7%	-24	-5.0	2%
CC(N=c1ccccn1C(=O)Nc1cccc(C(F)(F)F)c1)c1ccco1 (centres undefined)	-9	8	4	-3.0%	0	-2.2	12%
CC(C)(CO)NCc1cccc(OCc2ccc(Cl)cc2)c1	-10	1	9	4.8%	2	-2.0	0%
Cc1cc(C)cc(OC(=O)CN2C(=O)c3ccccc3C2=O)c1	-4	-9	-1	1.4%	-3	-3.1	-1%
Cc1cc(C)n(-c2nc3ccccc3nc2N2CCOCC2)n1	5	5	7	-1.5%	1	-4.0	2%
O=S(=O)(Nc1nc(-c2ccco2)c(-c2ccco2)s1)c1ccc(F)cc1F	-6	nt	-17	-1.2%	-7	-2.7	nt
Nc1ncn(C(=O)c2ccco2)n1	-1	3	3	-0.1%	0	1.7	-4%

# An excerpt from above in order of their number in Six1-Eya2 inh, descending.
canonical_smiles	Six1-Eya2 inh
Nc1ncn(C(=O)c2ccco2)n1	3
CN(C(=O)Cn1cc(C(F)(F)F)cc(Cl)c1=O)C1CCS(=O)(=O)C1 (centres undefined)	1
CCC(=O)OCC(=O)Nc1ncc(C(F)(F)F)cc1Cl	0

# The listing picks up, starting 3 compounds before the break.
# Fields: D2 PAM	TRPV1 potentiator	Six1-Eya2 inh	PINK1 modulator	CtBP-E1A inh	D2 agonist	Sfp inh
- Cc1cc(C)n(-c2nc3ccccc3nc2N2CCOCC2)n1
    5	5	7	-1.5%	1	-4.0	2%
- O=S(=O)(Nc1nc(-c2ccco2)c(-c2ccco2)s1)c1ccc(F)cc1F
    -6	nt	-17	-1.2%	-7	-2.7	nt
- Nc1ncn(C(=O)c2ccco2)n1
    -1	3	3	-0.1%	0	1.7	-4%
- Cc1ccc(C2CC(c3ccco3)n3nc(N)nc3N2)cc1 (centres undefined)
    -4	nt	2	-2.6%	-5	-4.6	0%
- COC(=O)CCCCCN1C(=O)/C(=C\c2ccncc2)SC1=S
    -3	nt	0	2.3%	nt	8.7	-3%
- COc1ccc(CNC(=O)c2c(O)c3cccc4c3n(c2=O)CCC4)cc1OC
    3	12	-5	0.8%	-2	-1.6	-6%
- COc1cc(OC)cc(C(=O)OCc2cc3ccccc3[nH]c2=O)c1
    -8	-4	1	4.3%	-1	-1.7	-8%
- O=C(/C=C/c1ccccc1Cl)N1CCN(c2ncccn2)CC1
    -3	1	0	-1.2%	3	0.2	4%
- O=C(NCCc1ccccc1)c1ccc([N+](=O)[O-])cc1
    -1	-35	2	1.7%	-12	-2.7	-10%
- Cc1c(-c2cccs2)[n+](=O)c2c(n1[O-])CCCC2
    -6	1	5	-1.0%[38.3 µM]	6	-2.0	24%
- CCOc1ccc(S(=O)(=O)N2CCC(C(=O)NC3CCCCC3)CC2)cc1
    7	-3	2	12%	7	-2.3	17%
- O=C(c1ccc(Cn2cc(Br)cn2)o1)N1N=C(C(F)F)CC1(O)C(F)F (centres undefined)
    1	8	0	4.2%[38.3 µM]	-2	-4.1	0%
- NC(=S)N1OC[C@@H]2COc3ccc4ccccc4c3[C@@H]21
    -1	16	2	?	-1	-3.3	11%
- Cc1onc(C(=O)NN)c1C(=O)N1CCN(C(c2ccccc2)c2ccccc2)CC1
    -4	-21	-15	-0.5%	-16	-0.5	2%
- Cc1sc2nc(C(C)C)nc(SCC(=O)NC3CC3)c2c1C
    -3	-10	60	2.1%	5	-4.3	17%
- CSc1nsc(SCC(=O)NCc2ccc(C)cc2)n1
    -8	-15	-28	0.6%	-1	4.3	4%
- C/C(N)=C(/C#N)C(=O)CSc1nc2cc(Cl)ccc2s1
    4	-2	-14	6.4%[38.3 µM]	-3	2.3	-11%
- Cc1ccc(CN2CC(C(=O)N3CCN(S(=O)(=O)c4c(F)cccc4F)CC3)CC2=O)cc1 (centres undefined)
    -12	27	0	-0.5%	0	-5.4	nt
- Nc1cc(=O)[nH]c(=O)n1-c1cccc(F)c1
    -5	18	-4	-0.1%	7	0.5	12%
- Cc1ccc(C)c(S(=O)(=O)N2CCN(C(=O)CN3C(=O)C4CC=CCC4C3=O)CC2)c1 (centres undefined)
    16	1	-3	1.0%	2	-0.4	nt
- CC(NC(=O)c1ccc(N2CCCC2)c([N+](=O)[O-])c1)c1ccc(S(N)(=O)=O)cc1 (centres undefined)
    -20	15	0	2.0%	-13	-2.7	11%
- COC(=O)c1ccccc1NC(=O)C(CCS(C)(=O)=O)NC(C)=O (centres undefined)
    0	-7	14	-2.3%	-1	-0.2	4%
- COc1ccc(CNCC2COc3ccccc3O2)cc1 (centres undefined)
    -26	0	8	5.9%	4	-5.9	?
- COCc1cc(=O)[nH]c(/N=C(\N)Nc2c(F)cccc2F)n1
    -3	9	11	1.3%	6	-1.2	-24%
- COc1cc(NS(=O)(=O)c2c(C(=O)N3CCOCC3)c(C)n(C)c2C)cc(OC)c1OC
    3	-1	1	0.3%	3	-3.2	19%
- COc1cccc(/C=N/c2oc(-c3ccccc3)cc2C#N)c1O
    5	-2	-9	-1.9%	-7	0.1	?
- COC(=O)c1ccc2c(=O)n(Cc3ccc(C(=O)NC4CCCC4)cc3)c(=S)[nH]c2c1
    3	6	-3	0.7%	1	0.2	-3%
- CCN(C(=O)c1ccc(NC(=O)c2ccco2)cc1)c1ccccc1
    1	-1	3	11%	3	-5.3	14%
- CCOc1ccccc1NC(=S)N1CCC(c2nc3ccccc3o2)CC1
    -11	-1	-3	-1.7%	nt	2.3	-3%
- O=C(CSc1ccc(S(=O)(=O)N2CCCC2)cn1)Nc1ccc([N+](=O)[O-])cc1C(F)(F)F
    22	nt	-2	-0.7%	-25	9.6	nt
- COc1ccc(/C=C/C(=O)NCC(=O)N/N=C(/C)c2ccco2)cc1
    -19	2	10	0.4%	-12	6.8	10%
- O=C(CSc1nnc(NC(=O)c2ccccc2)s1)NCC1CCCO1 (centres undefined)
    -4	0	-1	-0.1%	5	-3.0	4%
- CCOC(=O)C(C#N)=CN1CCN(C(=O)CCCl)c2ccccc21
    -3	nt	1	1.4%	3	3.1	nt

# Hits appear at their usual frequency; 3.7% or so of the library scored in one or more.
